# RGS16-Gao = modulators of RGS16 binding to Galphao, primary screen, biochemical, human proteins, multiplexed bead flow cytometry. bead-based flow cytometry RGS16-Galphao binding, fluorescence; actives lie on both sides. binding response (% of control), % at 10 µM. 0.38% of 220,000 active. AID 1441, 2008;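 active means below 25% or above 175%, edge rows of some plates excepted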;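 further: Galphao activated by GDP with aluminum fluoride before binding; 100% = wells without compound and 0% = beads without RGS; some results beyond the cut were filed as inactive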
# Target sequence (O15492 whole entry, looked up): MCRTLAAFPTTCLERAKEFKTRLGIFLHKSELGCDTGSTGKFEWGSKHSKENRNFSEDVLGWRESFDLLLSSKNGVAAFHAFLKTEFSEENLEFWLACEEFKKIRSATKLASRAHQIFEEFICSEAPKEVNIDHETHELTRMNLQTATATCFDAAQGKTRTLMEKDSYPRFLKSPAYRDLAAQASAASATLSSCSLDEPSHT
# Target sequence (P09471 whole entry, looked up): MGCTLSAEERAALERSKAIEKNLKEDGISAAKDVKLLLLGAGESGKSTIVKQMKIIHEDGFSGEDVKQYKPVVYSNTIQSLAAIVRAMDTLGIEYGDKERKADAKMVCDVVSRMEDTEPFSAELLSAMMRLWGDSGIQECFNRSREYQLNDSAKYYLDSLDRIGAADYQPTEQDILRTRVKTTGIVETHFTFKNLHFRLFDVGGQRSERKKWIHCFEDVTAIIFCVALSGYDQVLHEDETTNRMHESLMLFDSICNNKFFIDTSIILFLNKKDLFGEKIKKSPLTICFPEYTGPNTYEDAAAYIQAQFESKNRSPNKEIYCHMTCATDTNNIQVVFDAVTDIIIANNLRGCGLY
# HSV augment = enhancers of HSV replication in host cells, fold increase, host cell viability. AID 1956, 2009. HSV replication augmentation in cells. maximum fold increase. 0.005% of 220,000 active;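 active means peak rise of 1.5-fold or more in the series; inconclusive means self-fluorescent or not available for retest; tested in PC3 cells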;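 further: first round at 10 µM; read as green reporter fluorescence; hits show the peak of a series up to 25 µM; 1 = signal of infected wells without compound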
# PKD1 kinase inh = inhibitors of human PKD1 kinase, biochemical, fluorescence polarization. Serine/threonine-protein kinase D1 (Homo sapiens), Q15139. PKD1 kinase fluorescence polarization assay. inhibition, %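 (about 10 µM by stock and volumes)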. 0.056% of 200,000 active. AID 797, 2007;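 active means inhibition of 50% or more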;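 further: controls were vehicle for no effect and a reference inhibitor for full effect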
# GALR2 agonist = GALR2 receptor agonists, primary screen, cell-based. GALR2-expressing cells, agonist activation read-out. activation, %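 (tested at 5 µM)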. 0.48% of 140,000 active. AID 803, 2007;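 active means above mean plus 3 SD of all compounds, about 5% in these data, not always enough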;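 further: 0% = vehicle buffer wells and 100% = reference agonist at full effect; tested in CHO reporter cells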
# Target sequence (O43603 whole entry, looked up): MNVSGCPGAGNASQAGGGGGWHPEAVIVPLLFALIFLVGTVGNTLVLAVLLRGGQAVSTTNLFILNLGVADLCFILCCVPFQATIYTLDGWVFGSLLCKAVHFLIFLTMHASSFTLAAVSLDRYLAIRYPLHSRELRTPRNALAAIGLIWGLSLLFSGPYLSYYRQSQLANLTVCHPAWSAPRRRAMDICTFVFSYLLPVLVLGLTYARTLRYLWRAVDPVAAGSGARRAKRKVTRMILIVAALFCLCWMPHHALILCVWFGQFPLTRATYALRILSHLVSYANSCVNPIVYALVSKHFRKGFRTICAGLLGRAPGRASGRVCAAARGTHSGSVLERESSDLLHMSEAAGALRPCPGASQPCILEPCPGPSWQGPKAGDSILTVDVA
# Insulin prom inh = inhibitors of insulin promoter-driven GFP, primary screen, imaging, TRM-6 cells (human fetal islet line), eGFP reporter, cell count. reporter expression induced with tamoxifen. inhibition, % at 2 µM. 0.9% of 130,000 active;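 active means inhibition above the mean plus 3 SD, with well images judged a real hit on visual review, cut at about 60% in these data, passing the limit was not always enough; inconclusive means inhibition over the cutoff but images rejected on review; inactive means inhibition not above the cutoff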
# Insulin prom inh cell count = second read-out of Insulin prom inh, no call of its own (marks repeat the call); normalized cell count, %; measured here: cell count, toxicity; reference of the scale not given here;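 cells exposed to compound for 48 h; stained nuclei by imaging scaled within each plate; lower means fewer cells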
# HSV augment primary fold = second read-out of HSV augment, no call of its own (marks repeat the call); fold increase; compound at 10 µM; measured here: primary screen fold increase 10 uM; tested in PC3 cells;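 GFP signal in the first replicate; 1 = infected wells without compound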
# The depositor's hits bear a star; i = inactive; ? = inconclusive; . = no result given; & = joins results of further samples. Not a hit list; any-hit rate near 1.3%.
# Value order: PKD1 kinase inh	GALR2 agonist	HSV augment	RGS16-Gao	HSV augment primary fold	Insulin prom inh cell count	Insulin prom inh
C#CCOCCOCCOCCNc1nc(N2CCN(C(=O)Cn3cc(CCCN=C(N)N)nn3)CC2)nc(N2CCN(C(=O)[C@H](C(C)C)n3cc(CCO)nn3)CC2)n1
    -7	-1.3	i	102	0.77	87	35
Cc1ccc(Sc2ccc(CN3CCCC3)cc2[N+](=O)[O-])cc1
    0	.	i	96	0.81	.	.
C/C=C/C(=O)N1CC2(CC(c3cccc(NC(=O)/C(C)=C/C)c3)=NO2)C[C@H]1C(N)=O (stereo partly specified)
    .	.	i	106	0.79	.	.
O=C(NC12CCC(O)C(SC1)/C2=N/O)c1ccccc1 (stereo unspecified)
    0	-0.2	i	113	0.83	105	-25
CC1(C)Cc2cccc(OCC(=O)N3CCN(S(=O)(=O)c4ccccc4F)CC3)c2O1
    3	-1.3	i	98	0.86	.	.
Cc1ccc2c(c1)-c1ncc(C(=O)c3cc(Br)ccc3O)cc1CO2
    7	.	i	104	0.93	.	.
O=C(COc1ccc(OCc2ccccc2)cc1)NN=C1CCCC1
    -2	.	i	104	0.97	.	.
O=C(Nc1cc(Cl)ccc1N1CCOCC1)c1ccc2c(c1)OCCO2
    -2	.	i	105	0.97	111	11
O=C(CN1CCN(c2nc(-c3ccc(Cl)cc3)cs2)CC1)NCc1ccco1
    -3	0.9	i	110	0.83	102	-11
C/C(=N/Nc1nc(-c2ccccc2)c(CC(=O)O)s1)c1ccccc1
    .	.	?	99	.	.	.
Cc1cccc2cc(CN(Cc3cccnc3)C(=O)c3ccncc3)c(=O)[nH]c12
    -9	-1.3	i	105	0.97	126	25
N#CCSc1nc2ccccc2c(=O)n1C1CCCCC1
    -7	.	i	102	0.96	43	-73
NC(=O)C1=C[C@@H](c2csc3ccccc23)C[C@@H](OCCCCO)O1
    4	.	i	107	0.85	.	.
CCOc1ccccc1C1C(C#N)=C(N)Oc2cc(N)ccc21 (stereo unspecified)
    -11	-1.8	i	103	1.1	54	11
CN(C)CCn1c(=N)n(CC(O)c2ccc(Cl)c(Cl)c2)c2ccccc21 (stereo unspecified)
    4	.	i	110	0.55	.	.

# An excerpt of these results, as labelled records:
N#CCSc1nc2ccccc2c(=O)n1C1CCCCC1
  PKD1 kinase inh: -7
  GALR2 agonist: .
  HSV augment: i
  RGS16-Gao: 102
  HSV augment primary fold: 0.96
  Insulin prom inh cell count: 43
  Insulin prom inh: -73
NC(=O)C1=C[C@@H](c2csc3ccccc23)C[C@@H](OCCCCO)O1
  PKD1 kinase inh: 4
  GALR2 agonist: .
  HSV augment: i
  RGS16-Gao: 107
  HSV augment primary fold: 0.85
  Insulin prom inh cell count: .
  Insulin prom inh: .

# Next structures:
# Value order: PKD1 kinase inh	GALR2 agonist	HSV augment	RGS16-Gao	HSV augment primary fold	Insulin prom inh cell count	Insulin prom inh
O=c1[nH]nc(Cc2ccc(-c3cccc(Cl)c3)o2)c2ccccc12
    -4	1.3	i	98	1.1	38	-42
CC1CCN(CCc2nc3cc(NC(=O)Nc4ccccc4)ccc3n2C)CC1
    -3	-1.5	i	107	0.52	.	.
CC(C)[C@@H]1NC(=O)c2cc([N+](=O)[O-])cc(I)c2NCC[C@@H](C(N)=O)NC(=O)[C@H](CO)NC1=O
    -4	-0.9	i	105	0.86	94	-32
O=C(O)CSc1nnc(CSc2nc3ccccc3s2)n1-c1ccccc1
    1	.	i	101	1.1	.	.
Cc1cc(C)c(-c2cc(C)nc3ncnn23)c(C)c1
    -1	.	i	87	0.98	.	.
O=C1c2cccc3cccc(c23)C(=O)N1c1ccccn1
    2	.	i	98	0.96	.	.
Cc1cnc(NC(=O)CSc2nnc(N)s2)s1
    -9	.	i	106	0.98	.	.
Cc1ccc(-c2nn(-c3ccccc3)cc2CN(C)C(=O)CCC(=O)O)cc1C
    -2	.	i	103	0.59	96	62
O=C(NCCCn1ccnc1)C1CC2CCC1C2 (stereo unspecified)
    -2	-3.2	i	66	0.91	.	.
CCOC(=O)N1CCN(S(=O)(=O)c2ccc(C(=O)Nc3nnc(CSC)o3)cc2)CC1
    8	-0.5	i	98	1	.	.
Fc1ccc(CSc2nnc(-c3cc4c(s3)-c3ccccc3CC4)o2)cc1
    4	1.1	i	100	0.91	48	9
Cn1c(/C(C#N)=C/c2ccncc2)nc2ccccc21
    -2	.	i	103	0.97	.	.
Cc1ccsc1/C=N/NC(=O)Cc1ccc(Cl)cc1
    .	.	i	97	0.99	.	.
CC(=O)c1c(C(C)=O)c(C)n(NC(=O)c2cccnc2)c1C
    17	-2.9	i	105	0.93	120	45
Cc1nnc(SCc2nc3sc4c(c3c(=O)[nH]2)CCCC4)[nH]c1=O
    -5	.	i	101	0.97	.	.
Cc1ccc(/C=N/NC(=O)c2c(-c3ccccc3)noc2C)o1
    -2	-1.9	i	35	1.1	123	21
Cc1ccc(S(=O)(=O)N(C)c2ccc(OCC(=O)O)cc2)cc1
    2	1.3	i	76	0.92	113	-7
Cc1nc(-c2ccccc2)sc1-c1nc(-c2cccnc2)ncc1S(=O)(=O)c1ccccc1
    -6	-1.8	i	91	0.98	.	.
Cc1noc(C)c1S(=O)(=O)N1CCCC(C(=O)NC2CCCCC2)C1 (stereo unspecified)
    0	0.6	i	108	0.86	101	8
CC1(c2nnc(-c3ccccc3)o2)CC(c2ccc(F)cc2)=NO1 (stereo unspecified)
    .	.	i	105	0.77	.	.
COCCNC(=O)Cn1cnc2ccc(S(=O)(=O)N3CCC(C)CC3)cc2c1=O
    -5	2.7	i	102	1.1	.	.
C=CCC(NCc1ccccc1)c1ccc(C)o1 (stereo unspecified)
    -5	-1.1	i	104	0.98	121	38
Cc1c(C(=O)NC(=S)Nc2ccc3c4c(cccc24)CC3)cccc1[N+](=O)[O-]
    0	-4.0	i	99	1	108	33
O=C1CCC(=O)N1c1ccc(CSc2nnnn2C2CCCCC2)cc1
    -3	-2.4	i	104	0.89	133	29
O=C(NCc1ccco1)C1OCCc2ccccc21 (stereo unspecified)
    -13	-1.8	i	93	0.94	103	-80
CCc1ccc(CN(C)C(=O)CCc2nnc(COc3ccccc3)o2)cc1
    -1	.	i	104	1	92	-43
Cc1ccc(C)n1-n1c(C)nc2scc(-c3cccs3)c2c1=O
    -8	-0.8	i	100	1	.	.
CCCN(CCC)CC(O)CN1C(=O)N(CN2C(=O)N(CC(O)CN(CCC)CCC)C(=O)C2(C)C)C(C)(C)C1=O (stereo unspecified)
    -1	.	i	97	0.97	100	-53
Cc1ccc(NC(=O)c2ccc(Nc3ccccc3F)nc2)cc1
    1	-0.2	i	69	1.1	.	.
Cc1ccc2cc3cc(C(=O)N4CC(C)CC(C)C4)oc3nc2c1 (stereo unspecified)
    -8	-2.2	i	106	0.83	108	13
Cn1c(N)c(C(=O)CSc2nc3ccccc3[nH]2)c(=O)n(C)c1=O
    .	.	i	132	1	.	.
CN(C)S(=O)(=O)c1cccc(NC(=S)Nc2cc(Cl)cc(Cl)c2)c1
    1	0.4	i	100	0.76	114	-2
COc1ccc(/C=N/NS(=O)(=O)c2ccccc2)cc1OC(=O)c1ccc(C)cc1
    3	-2.6	.	92	.	71	7
CC(=O)Nc1ccc(NC(=O)C(C)OC(=O)C2(c3ccc(Cl)cc3)CCCC2)cc1 (stereo unspecified)
    4	-1.2	i	102	1	131	15
Cc1cc(=O)cc(C)n1-c1ccc(Cl)cc1
    -3	.	i	101	1.2	88	-58
COc1ccc2[nH]cc(C(=O)CN3CCCCC3)c2c1
    -6	-0.2	i	100	0.93	.	.
O=[N+]([O-])c1cccc(/C=N/Nc2nc(NCc3ccccc3)nc(N3CCOCC3)n2)c1O
    -9	.	i	97	0.83	.	.
CCOC(=O)CCN(Cc1cccs1)S(=O)(=O)c1ccc(Cl)cc1
    -18	-2.0	i	112	1.1	.	.
CCc1cccc(NC(=O)Cc2ccc([N+](=O)[O-])cc2)c1
    -4	0.4	i	116	0.94	69	-17
CCn1c(SCC(=O)N/N=C/C=C/c2ccco2)nnc1-c1ccc(OC)cc1
    10	0.0	i	99	1	.	.
COc1ccccc1NC(=O)CCN1C(=O)c2ccccc2S1(=O)=O
    0	.	i	97	1	.	.
O=C(NC(Cc1c[nH]c2ccccc12)C(=O)O)c1ccccc1 (stereo unspecified)
    9	-3.5	i	100	0.88	63	-93
CNC(=O)/C(=C/c1ccc2c(c1)OCO2)NC(=O)c1ccc(Br)cc1
    -8	-1.2	i	101	0.97	99	34
Cc1ccc(N2C(=O)S/C(=C/c3cn(C)c4ccccc34)C2=O)cc1
    -4	-1.6	.	101	.	.	.
N=c1c[n+](-c2ccc(Cl)cc2)[n-]o1
    -7	-1.5	i	100	0.84	.	.

# Another view of 7 compounds above.
molecule | PKD1 kinase inh | GALR2 agonist | HSV augment | RGS16-Gao | HSV augment primary fold | Insulin prom inh cell count | Insulin prom inh
CCc1cccc(NC(=O)Cc2ccc([N+](=O)[O-])cc2)c1 | -4 | 0.4 | i | 116 | 0.94 | 69 | -17
COc1ccc(/C=N/NS(=O)(=O)c2ccccc2)cc1OC(=O)c1ccc(C)cc1 | 3 | -2.6 | . | 92 | . | 71 | 7
Cc1ccc(N2C(=O)S/C(=C/c3cn(C)c4ccccc34)C2=O)cc1 | -4 | -1.6 | . | 101 | . | . | .
COc1ccc2[nH]cc(C(=O)CN3CCCCC3)c2c1 | -6 | -0.2 | i | 100 | 0.93 | . | .
Cc1cc(=O)cc(C)n1-c1ccc(Cl)cc1 | -3 | . | i | 101 | 1.2 | 88 | -58
CC(=O)Nc1ccc(NC(=O)C(C)OC(=O)C2(c3ccc(Cl)cc3)CCCC2)cc1 (stereo unspecified) | 4 | -1.2 | i | 102 | 1 | 131 | 15
CN(C)S(=O)(=O)c1cccc(NC(=S)Nc2cc(Cl)cc(Cl)c2)c1 | 1 | 0.4 | i | 100 | 0.76 | 114 | -2

# (list continues)
# Value order: PKD1 kinase inh	GALR2 agonist	HSV augment	RGS16-Gao	HSV augment primary fold	Insulin prom inh cell count	Insulin prom inh
C=CCc1cc(C=O)cc(OC)c1OCc1ccc(C(=O)O)cc1
    -7	.	i	89	1.1	.	.
CC(=O)c1ccc(NC(=O)Nc2ncn(Cc3cccc(C)c3)n2)cc1
    -8	-0.4	i	94	0.78	51	8
CCCn1cnc2c(c1=O)c1nc3ccccc3nc1n2CCC1=CCCCC1
    -20	-0.9	i	114	0.87	.	.
CCOC(=O)c1c(C)c(C(=O)OCC)n(C)c1C
    .	.	i	96	0.83	.	.
CSc1ccc(/C=N/Nc2cccc(C(=O)O)c2)cc1
    2	.	i	103	0.97	106	0
CSc1nc2nccc(/C=C\c3ccccc3)n2n1
    -12	-1.7	i	121	0.65	109	30
CN(C)/C=C/c1onc(-c2c(F)cccc2Cl)c1C#N
    4	.	i	98	0.91	93	15
O=C(CCCN1CC=C(n2c(=O)[nH]c3ccccc32)CC1)c1ccc(F)cc1
    -2	0.4	i	122&102	0.87	35	-64
CC(NCc1ccc(S(N)(=O)=O)cc1)C(=O)Nc1ccc([N+](=O)[O-])cc1Cl (stereo unspecified)
    -6	.	i	107	1	119	5
Cc1ccc(SCc2cc(=O)[nH]c(N3CCCCC3)n2)cc1
    5	-1.2	i	104	1	.	.
N#CC(CO)(Cc1ccc(OC(F)F)cc1)c1nc2ccccc2[nH]1 (stereo unspecified)
    10	-0.2	i	111	0.93	.	.
CCN(CC)S(=O)(=O)c1ccc(N2CCOCC2)c(NC(=O)C2COc3ccccc3O2)c1 (stereo unspecified)
    4	.	i	102	1	.	.
COc1ccc(/C=N/Nc2cc(N(C)C)nc(N(C)C)n2)cc1
    -13	0.4	i	113	0.79	44	17
O=C(NCCSc1ccccc1)c1cncc(Br)c1
    -2	0.8	i	106	1	134*	75*
Cc1nc(Cl)c(C#N)cc1-c1ccccc1
    14	-0.5	i	81	1	.	.
O=c1ccnc2n1COCS2
    .	.	i	95	1.1	.	.
Cc1cccc(NC(=S)N2CCC(c3nc4ccccc4s3)CC2)c1
    3	-1.3	i	105	1.1	131	39
O=C(NC1CCCCC1)C1CC=CCC1C(=O)OCC(Cl)=C(Cl)Cl (stereo unspecified)
    0	-2.6	i	98	1.1	160	-14

# Compound activity from PubChem BioAssay.
